GIV Gai3 FP: inhibitors of GIV GBA-motif binding to rat Galpha-i3; P08753; Galpha-i3/FITC-GIV peptide fluorescence polarization, 90 min; stronger effect = lower value; scaled: aluminum fluoride 0%, vehicle 100%; percent of control (FP), % (concentration not given with the values); actives 0.42% (n = 210,000);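 active means replicate mean at 85% of control or lower, very high polarization wells dropped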;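 further: wells of about 15 µL received 100 nL stock; the first replicate is given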
Target sequence (P08753 whole entry, looked up): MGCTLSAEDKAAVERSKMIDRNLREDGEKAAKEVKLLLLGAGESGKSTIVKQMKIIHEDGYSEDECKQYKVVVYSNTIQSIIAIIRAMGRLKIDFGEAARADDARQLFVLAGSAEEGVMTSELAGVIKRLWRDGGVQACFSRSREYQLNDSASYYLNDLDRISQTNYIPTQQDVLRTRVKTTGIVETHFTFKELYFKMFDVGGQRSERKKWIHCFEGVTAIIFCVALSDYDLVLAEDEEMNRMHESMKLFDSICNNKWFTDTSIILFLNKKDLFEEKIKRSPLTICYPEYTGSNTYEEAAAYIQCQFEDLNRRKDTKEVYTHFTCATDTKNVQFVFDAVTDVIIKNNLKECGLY
Sa growth 42C: inhibitors of Staphylococcus aureus growth at 42 °C; S. aureus RN4220 growth, OD600, 20 h; stronger effect = lower value; relative growth, % (test concentration not listed); actives 0.53% (n = 170,000); AID 720641;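 active means growth at 42 °C up to 50% and 20 or more points under that at 30 °C, or under 10% at both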;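 further: 300 nL library stock went into each well; scaled to the means of positive and negative controls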
HCMV NEC inh: inhibitors of HCMV UL50-UL53 nuclear egress complex interaction; HTRF UL50-UL53 interaction, normalized percent inhibition; inhibition, % (no concentration beside the values); actives 0.15% (n = 190,000); AID 1918969;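 active means both replicates at 50% or more, plus weaker picks with an unusually low signal ratio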;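 further: stock transfer was 100 nL into about 20 µL; 0% = negative control wells and 100% = wells with untagged competitor protein; inactives centre near -12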
Sa growth 42C second temp: further read-out of Sa growth 42C, marked with its call; relative growth, %; measured here: growth at 30 °C;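 optical density after 20 h as mean of two plates; 100% = untreated growth and lower means inhibition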
An asterisk follows results filed as active; & = joins results of further samples.

CC(C)OCCCN1C(=O)c2[nH]nc(-c3ccccc3O)c2C1c1cccc(OCc2ccccc2)c1 (stereo not given) was read as GIV Gai3 FP 98.6, Sa growth 42C 92.4, HCMV NEC inh -0.3 and Sa growth 42C second temp 84.4.
For CCCNc1cc(C)nc2c(-c3ccc(C)cc3)c(C(F)(F)F)nn12 the results were GIV Gai3 FP 96.2 and HCMV NEC inh -15.0.
For CC1CCc2c(sc3nc(CCC(=O)N4CCN(c5ccc(Cl)cc5)CC4)[nH]c(=O)c23)C1 (stereo not given) the results were GIV Gai3 FP 97.2 and HCMV NEC inh -15.9.
CCc1ccc(NC(=O)CSc2nnc(C(C)C)n2CC)cc1 was read as GIV Gai3 FP 96.6, Sa growth 42C 95.5, HCMV NEC inh -6.5 and Sa growth 42C second temp 82.7.
CCCc1nn2c(=O)cc(COC(=O)c3ccc(NC(=O)COc4ccc(F)cc4)cc3)nc2s1 was read as GIV Gai3 FP 100.4, Sa growth 42C 79.0 and Sa growth 42C second temp 97.8.
Screening Cc1ccc(C)c(N2CCN(CCCNC(=O)c3nnc(-c4ccccc4)o3)CC2)c1 returned GIV Gai3 FP 97.3 and HCMV NEC inh 1.7.
For COc1ccc(S(=O)(=O)Nc2cc(Cl)ccc2Sc2nncn2C)cc1Br the results were Sa growth 42C 100.1, HCMV NEC inh -16.9 and Sa growth 42C second temp 64.3.
Screening Cc1cccc2c1NC1(CCCC1)CC2C (stereo not given) returned GIV Gai3 FP 98.7, Sa growth 42C 89.8, HCMV NEC inh -23.0 and Sa growth 42C second temp 83.0.
For Fc1ccc(-c2nn3c(-c4ccccn4)nnc3s2)cc1Br the results were GIV Gai3 FP 103.8 and HCMV NEC inh -15.1.
CC1CN2C(=O)Cc3c(S(=O)(=O)N(C)Cc4ccccc4)ccc(c32)S1 (stereo not given) was read as GIV Gai3 FP 106.5 and HCMV NEC inh -6.5.
Cc1ccc(-c2cn3cccnc3n2)cc1NC(=O)Cc1ccccc1 was read as GIV Gai3 FP 102.9, Sa growth 42C 99.8 and Sa growth 42C second temp 92.8.
`CC1CCC(C(C)C)C(OC(=O)CN2C(=O)c3ccccc3C2=O)C1` (stereo not given) gave GIV Gai3 FP 104.0, Sa growth 42C 104.0 and Sa growth 42C second temp 112.8.
CCOC(=O)c1c[nH]n2c(=O)c3c(nc12)CCCC3 was read as GIV Gai3 FP 95.8, Sa growth 42C 85.3, HCMV NEC inh 33.2 and Sa growth 42C second temp 81.1.
Cc1cc2ncn(S(=O)(=O)c3ccc(S(N)(=O)=O)cc3)c2cc1C was read as GIV Gai3 FP 103.7, Sa growth 42C 103.6, HCMV NEC inh -14.0 and Sa growth 42C second temp 88.0.
For CC(C)(C)c1ccc(Cn2c(=N)n(CCO)c3ccccc32)cc1 the results were GIV Gai3 FP 105.9, Sa growth 42C 118.8 and Sa growth 42C second temp 61.7.
`Cc1ccc(C)c(N(C)C(=O)Cc2c(C(=O)O)[nH]c3ccc(Cl)cc23)c1` gave GIV Gai3 FP 107.7, Sa growth 42C 76.3, HCMV NEC inh 0.6 and Sa growth 42C second temp 74.7.
For C=Cc1ccc(COC(=O)c2nnn(-c3ccccc3)c2C)cc1 the results were GIV Gai3 FP 102.5 and HCMV NEC inh -27.9.
`COc1cc(/C=N/c2nccs2)ccc1O` gave GIV Gai3 FP 103.6, Sa growth 42C 74.5, HCMV NEC inh -12.6 and Sa growth 42C second temp 62.5.
Screening CCOC(=O)C(C(C)C)C(N)Cc1ccc(F)cc1 (stereo not given) returned GIV Gai3 FP 104.7, Sa growth 42C 94.5, HCMV NEC inh 26.9 and Sa growth 42C second temp 83.5.
`CCN1CCN(C(=O)c2cn(CC)c(=O)c3cc(OC)c(OC)cc23)CC1` gave GIV Gai3 FP 96.4, Sa growth 42C 98.0, HCMV NEC inh -4.7 and Sa growth 42C second temp 91.7.
For COc1ccc(CCNC(=O)Cc2c(SC)c3ccccc3n2Cc2ccccc2)cc1OC the results were Sa growth 42C 75.3, HCMV NEC inh -10.6 and Sa growth 42C second temp 74.1.
`O=C(NCC(c1cccs1)S(=O)(=O)c1cccs1)c1ccc(Cl)cc1` (stereo not given) gave GIV Gai3 FP 102.5, Sa growth 42C 121.5 and Sa growth 42C second temp 88.2.
Screening COC(=O)C1=C(C)NC(C)=C(C(=O)OC(C)C)C1c1cccc2nonc12 (stereo not given) returned Sa growth 42C 97.6, HCMV NEC inh 8.8&0.9&-110.4&-19.4 and Sa growth 42C second temp 78.6.
For CC(NC(=O)C1CCCN(c2nnc(-n3cccc3)s2)C1)c1ccc2c(c1)OCCO2 (stereo not given) the results were GIV Gai3 FP 109.5, Sa growth 42C 99.8 and Sa growth 42C second temp 80.3.
Screening CC1CCN(CN2C(=S)SC3=NC(=O)CCCN32)CC1 returned GIV Gai3 FP 104.0, Sa growth 42C 102.4 and Sa growth 42C second temp 76.3.
CC1(C)C(=O)Nc2ccccc2N1C(=O)COc1ncnc2ccccc12 was read as Sa growth 42C 105.5, HCMV NEC inh -26.9 and Sa growth 42C second temp 93.3.
`Cc1ccc(-c2nc3cnccn3c2Nc2ccc3c(c2)OCO3)cc1` gave GIV Gai3 FP 102.8 and HCMV NEC inh -35.1.
Screening Cc1nc2c(C(=O)NCC3CCCO3)cnn2c(C)c1Cc1ccc(F)cc1 (stereo not given) returned GIV Gai3 FP 98.4, Sa growth 42C 89.8, HCMV NEC inh -19.7 and Sa growth 42C second temp 86.0.
Screening COC(=O)Nc1nc2ccc(Sc3ccccc3)cc2[nH]1 returned GIV Gai3 FP 107.2, Sa growth 42C 82.5&95.3, HCMV NEC inh -26.1&-40.9&-22.8&-14.4 and Sa growth 42C second temp 86.9&84.0.
Screening C=CCn1c(SCC(N)=O)nnc1-c1ccccc1O returned GIV Gai3 FP 99.6, Sa growth 42C 87.8, HCMV NEC inh 6.7 and Sa growth 42C second temp 78.5.
`Cc1ccc(-n2ncc3c(N4CCN(CCO)CC4)ncnc32)cc1Cl` gave GIV Gai3 FP 103.2, Sa growth 42C 133.5 and Sa growth 42C second temp 86.0.
Screening CCOC(=O)c1ccccc1NC(=O)c1sc(NC(=O)COc2ccccc2C)c(C(=O)OCC)c1C returned GIV Gai3 FP 117.5 and HCMV NEC inh 3.3.
For CCN(CC)c1cc(=O)n2c(n1)SCCC2 the results were GIV Gai3 FP 111.3, Sa growth 42C 91.5, HCMV NEC inh -10.4 and Sa growth 42C second temp 64.0.
For CN1C(C(=O)N2CCCCC2)=CC(c2cccs2)=NS1(=O)=O the results were GIV Gai3 FP 101.0, Sa growth 42C 90.2, HCMV NEC inh -84.0 and Sa growth 42C second temp 82.0.
Screening C=C1N(c2ccccc2)C(=O)OC1(C)CC (stereo not given) returned Sa growth 42C 91.7, HCMV NEC inh -7.2 and Sa growth 42C second temp 84.4.
For CCn1cc(C(=O)NC(C)c2ccccc2)c(=O)c2cc(S(=O)(=O)N3CCc4ccccc4C3)ccc21 (stereo not given) the results were GIV Gai3 FP 102.3, Sa growth 42C 107.8, HCMV NEC inh -27.8 and Sa growth 42C second temp 81.4.
For O=C(COC(=O)c1ccc(Br)o1)c1ccc(Cl)c(Cl)c1 the results were GIV Gai3 FP 97.0, Sa growth 42C 109.2, HCMV NEC inh -5.4 and Sa growth 42C second temp 109.5.
`CC(C)c1ccc(NC(=O)CSc2nc(-c3ccc4c(c3)OCO4)nc3cc(=O)[nH]n23)cc1` gave GIV Gai3 FP 97.3 and HCMV NEC inh -4.2.
For OC(CSc1nc2ccccc2[nH]1)c1ccccc1 (stereo not given) the results were GIV Gai3 FP 107.9, Sa growth 42C 102.4, HCMV NEC inh 12.6 and Sa growth 42C second temp 92.4.
For NO the results were GIV Gai3 FP 104.2 and HCMV NEC inh 2.5.
Screening O=C(Sc1cccs1)C1CC2C=CC1CC2 (stereo not given) returned GIV Gai3 FP 103.6, Sa growth 42C 111.3, HCMV NEC inh -2.1 and Sa growth 42C second temp 74.0.
For Cc1noc2c1C(c1ccc(O)cc1)C1=C(CC(c3ccccc3)CC1=O)N2 (stereo not given) the results were GIV Gai3 FP 98.8 and HCMV NEC inh 6.1.
Screening O=C(CCc1nnc2n(Cc3ccccc3)c(=O)c3ccccc3n12)N1CCN(C(=O)c2ccco2)CC1 returned GIV Gai3 FP 101.9, Sa growth 42C 102.9, HCMV NEC inh -11.0 and Sa growth 42C second temp 83.0.
For O=C1C2C3C=CC(C3)C2C(=O)N1Nc1ccccc1 (stereo not given) the results were Sa growth 42C 100.2, HCMV NEC inh -10.9 and Sa growth 42C second temp 85.6.
Screening CCCS(=O)(=O)N1CC(=O)N(c2ccc(C)c(F)c2)C(C)(C(=O)NC2CCCC2)C1 (stereo not given) returned GIV Gai3 FP 102.7 and HCMV NEC inh -28.2.
Cc1ccc(S(=O)(=O)NCC(O)c2ccccc2)cc1 (stereo not given) was read as GIV Gai3 FP 102.1, Sa growth 42C 96.3, HCMV NEC inh -15.3 and Sa growth 42C second temp 88.2.
O=C1CC(c2ccco2)CC2=C1C(c1ccco1)N(C(=O)c1ccccc1)c1ccccc1N2 (stereo not given) was read as GIV Gai3 FP 99.9, Sa growth 42C 88.3, HCMV NEC inh -37.9 and Sa growth 42C second temp 60.1.
For Cc1csc(=O)n1CC(=O)OCC(=O)NCc1cccs1 the results were Sa growth 42C 71.0, HCMV NEC inh -16.2 and Sa growth 42C second temp 92.2.
`CNC(=O)CSc1nc2ccccc2n1-c1ccccc1` gave Sa growth 42C 78.5, HCMV NEC inh -14.4 and Sa growth 42C second temp 83.6.
Screening CN(C)S(=O)(=O)c1ccc2nc(NC(=O)c3ccc4c(c3)OCCO4)sc2c1 returned GIV Gai3 FP 104.7 and HCMV NEC inh -9.2.
COc1ccc(C2=NN(C(=O)CCC(=O)O)C(c3ccc(Br)cc3)C2)cc1 (stereo not given) was read as GIV Gai3 FP 101.7 and HCMV NEC inh -37.9.
Screening COc1cccc(C(=O)N2c3ccccc3C(Nc3ccccc3)CC2C)c1 (stereo not given) returned GIV Gai3 FP 100.6, Sa growth 42C 120.3 and Sa growth 42C second temp 87.2.
`CCC[C@@H]1C[C@@H](C(=O)N[C@@H]([C@H]2O[C@H](SC)[C@H](O)[C@@H](O)[C@H]2O)[C@H](C)Cl)N(C)C1` gave GIV Gai3 FP 104.9&101.1, Sa growth 42C -0.8*, HCMV NEC inh -32.0&9.0 and Sa growth 42C second temp -0.5*.
Screening Cc1cc(N)c(O)cc1C returned GIV Gai3 FP 188.3, Sa growth 42C 80.0, HCMV NEC inh -45.8 and Sa growth 42C second temp 35.7.
Screening CCOc1ccc(C(=O)N[C@H](C(=O)NC2CCCCC2)C(C)C)cc1 returned Sa growth 42C 80.5, HCMV NEC inh -1.6 and Sa growth 42C second temp 96.5.
`CN(C(=O)COC(=O)c1ccc(S(=O)(=O)N(C)C)cc1)c1ccccc1` gave Sa growth 42C 88.1, HCMV NEC inh -5.8 and Sa growth 42C second temp 95.0.
For COc1ccc(S(N)(=O)=O)cc1-c1noc(C)n1 the results were GIV Gai3 FP 107.0 and HCMV NEC inh -0.7.
COc1ccccc1CNC(=O)c1oc2ccc(S(=O)(=O)N3CCCCC3)cc2c1C was read as GIV Gai3 FP 98.2, Sa growth 42C 118.6 and Sa growth 42C second temp 88.9.
For O=C(Nc1ccc(F)c(F)c1)c1cc(S(=O)(=O)NCc2ccc(F)cc2)ccc1F the results were GIV Gai3 FP 99.2, Sa growth 42C 104.9 and Sa growth 42C second temp 93.5.
Screening CCCn1c(NCc2ccc(N(CC)CC)cc2)nc2ccccc21 returned GIV Gai3 FP 102.3, Sa growth 42C 103.2, HCMV NEC inh 20.8 and Sa growth 42C second temp 89.6.
`CCN(Cc1ccccc1)C(c1ccccn1)c1nnnn1C(C)(C)CC` (stereo not given) gave GIV Gai3 FP 102.0, Sa growth 42C 106.2, HCMV NEC inh 1.4 and Sa growth 42C second temp 84.4.
`O=C(Nc1ccccc1)OCN1C(=O)c2ccccc2C1=O` gave GIV Gai3 FP 103.4, Sa growth 42C 105.6, HCMV NEC inh -1.8 and Sa growth 42C second temp 98.9.
`O=C(O)CCC(=O)NCc1ccccn1` gave GIV Gai3 FP 96.2, Sa growth 42C 109.2, HCMV NEC inh 5.4 and Sa growth 42C second temp 87.2.
`Cc1ccc(Cn2c(SCC(=O)NCc3ccccc3Cl)nc3ccsc3c2=O)cc1` gave GIV Gai3 FP 105.6, Sa growth 42C 107.1 and Sa growth 42C second temp 80.1.
For Cc1cc(C(=O)N2CCCc3ccccc32)on1 the results were GIV Gai3 FP 101.6, Sa growth 42C 95.4, HCMV NEC inh 3.5 and Sa growth 42C second temp 88.5.

By substructure: those above containing bromine (4)
For COc1ccc(S(=O)(=O)Nc2cc(Cl)ccc2Sc2nncn2C)cc1Br the results were Sa growth 42C 100.1, HCMV NEC inh -16.9 and Sa growth 42C second temp 64.3.
For Fc1ccc(-c2nn3c(-c4ccccn4)nnc3s2)cc1Br the results were GIV Gai3 FP 103.8 and HCMV NEC inh -15.1.
For O=C(COC(=O)c1ccc(Br)o1)c1ccc(Cl)c(Cl)c1 the results were GIV Gai3 FP 97.0, Sa growth 42C 109.2, HCMV NEC inh -5.4 and Sa growth 42C second temp 109.5.
COc1ccc(C2=NN(C(=O)CCC(=O)O)C(c3ccc(Br)cc3)C2)cc1 (stereo not given) was read as GIV Gai3 FP 101.7 and HCMV NEC inh -37.9.

An unsorted share of the library (roughly 0.85% active in at least one column).
